# Screens deposited in PubChem BioAssay by National Center for Advancing Translational Sciences (NCATS).
# HPGD block – HPGD (human) dehydrogenase inhibition | purified HPGD, NADH fluorescence kinetic, PGE2 substrate | Potency, µM, inactives show at the highest dose activity change, negative = inhibition, hits mostly inhibitors | 4.3% of 150,000 active; active = well fitted inhibition curve with a large enough effect (not every such curve was filed as active); inconclusive = small, poorly fitted or top-dose-only effect, or another doubt; inactive = no such curve, though single readings can be large or run the other way;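 also: top concentration of the series not given in the record; plate controls included wells without enzyme; inactives centre near -10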
# Target sequence (P15428 whole entry, looked up): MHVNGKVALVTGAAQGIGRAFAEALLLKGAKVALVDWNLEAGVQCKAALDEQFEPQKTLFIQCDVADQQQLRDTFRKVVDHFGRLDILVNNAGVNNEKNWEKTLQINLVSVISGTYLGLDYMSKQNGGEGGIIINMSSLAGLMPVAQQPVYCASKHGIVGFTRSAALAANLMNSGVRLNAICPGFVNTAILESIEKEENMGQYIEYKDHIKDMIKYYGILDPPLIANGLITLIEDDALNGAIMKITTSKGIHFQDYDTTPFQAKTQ
#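 20 nM HPGD preincubated 15 min at room temperature with compound in 50 mM Tris-HCl pH 8, 0.01% Tween 20. Started with 1 mM NAD+ and 30 uM prostaglandin E2; NADH fluorescence (360/450 nm) read 5 times over 30-s intervals, last minus first.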
# Numbers without * were called inactive; ? = inconclusive; & = joins results of further samples. % is scaled to controls: 0 for no effect and ±100 for the full control effect; potency is read from the fitted curve at half-maximal effect. The list is partial; rates above refer to the full screens.
molecule | HPGD block
COc1cc(/C=N/NC(=S)Nc2cccc(C(=O)O)c2)cc(OC)c1OC | -23%
Cc1nc(CC(=O)NNS(=O)(=O)c2ccc3ccccc3c2)cs1 | -9%
O=C(OCc1nnc(-c2ccccc2)o1)c1ccco1 | 8.9µM*
C[C@]12CC[C@@H]3c4ccc(O)cc4CC[C@H]3[C@@H]1C[C@@H](O)[C@@H]2O[C@@H]1O[C@H](C(=O)O)[C@@H](O)[C@H](O)[C@H]1O | -9%
O=C(O)C1C(C(=O)O)C(C(=O)O)C1C(=O)O (stereo not given) | -7%
COc1cc(CC(=O)NCc2cccs2)cc(OC)c1OC | -17%
CNC(=S)Nc1cc(Cl)ccc1Oc1ccccc1 | -10%
COc1ccc2ccccc2c1C1CC(=O)N2CN(C3CCCCC3)CSC2=C1C#N (stereo not given) | 18µM*
CC1=NC(=O)C(N=Nc2ccccc2)N1c1ccccc1 (stereo not given) | -10%
Cc1ccc(C(C(=O)NC2CCCC2)N(Cc2ccco2)C(=O)CCC(=O)Nc2ccccn2)cc1 (stereo not given) | -5%
CC(NS(=O)(=O)c1ccccc1)C1COc2ccccc2O1 (stereo not given) | -14%
CCOc1ccccc1NC(=O)COC(=O)Cc1ccc(-c2ccccc2)cc1 | -13%

# A different layout for 2 compounds above:
HPGD block	Molecule
-23%	COc1cc(/C=N/NC(=S)Nc2cccc(C(=O)O)c2)cc(OC)c1OC
-9%	Cc1nc(CC(=O)NNS(=O)(=O)c2ccc3ccccc3c2)cs1

# The results go on:
molecule | HPGD block
CC(C)c1onc(C(=O)N2CCN(C(c3ccccc3)c3ccccc3)CC2)c1[N+](=O)[O-] | -4%
O=C(NC(=S)Nc1ccc(N2CCOCC2)c(Cl)c1)c1sc2ccccc2c1Cl | -22%
Cn1c(=O)[nH]c(=O)c2c1nc(NC1CCCCC1)n2CC(=O)NC1CCCCC1 | -4%
COc1ccc2nc(NC(=O)CN(c3ccc(C)cc3)S(=O)(=O)c3c(C)nn(C)c3C)sc2c1 | ?
COC(=O)CSc1nnc(CNC(=O)c2ccccc2OC)n1C | -6%
Cc1ccc(Nc2nc(C)c(CCC(C)C)c(=O)[nH]2)cc1 | -5%
CC(C)(C)NC(=O)CSCc1c(Cl)cccc1Cl | 25µM*
O=C(NCC1CCCO1)C(c1cccs1)N(Cc1ccccc1)C(=O)c1ccc(-c2ccccc2)[nH]1 (stereo not given) | ?
CCNc1nc(Oc2ccc(=O)n(-c3ccccc3)n2)nc(N(C)C)n1 | -6%
COc1cccc(-n2nc(C(=O)N3CC(C)CC(C)C3)c3ccccc3c2=O)c1 (stereo not given) | -4%
Cn1c(Oc2ccc(Cl)c3cccnc23)nc2c1c(=O)n(Cc1ccccc1Cl)c(=O)n2C | 0%
CCn1c(O)c(/C=N/N=C/c2ccccc2)c2ccc(C3=NNC(=O)CC3)cc21 | -27%

# Three entries from above, sorted by length of the SMILES, high to low:
molecule | HPGD block
O=C(NCC1CCCO1)C(c1cccs1)N(Cc1ccccc1)C(=O)c1ccc(-c2ccccc2)[nH]1 (stereo not given) | ?
COc1ccc2nc(NC(=O)CN(c3ccc(C)cc3)S(=O)(=O)c3c(C)nn(C)c3C)sc2c1 | ?
Cn1c(=O)[nH]c(=O)c2c1nc(NC1CCCCC1)n2CC(=O)NC1CCCCC1 | -4%

# Sorted by value in HPGD block (smallest number first): 5 from the list above
molecule | HPGD block
CCn1c(O)c(/C=N/N=C/c2ccccc2)c2ccc(C3=NNC(=O)CC3)cc21 | -27%
O=C(NC(=S)Nc1ccc(N2CCOCC2)c(Cl)c1)c1sc2ccccc2c1Cl | -22%
CCNc1nc(Oc2ccc(=O)n(-c3ccccc3)n2)nc(N(C)C)n1 | -6%
Cc1ccc(Nc2nc(C)c(CCC(C)C)c(=O)[nH]2)cc1 | -5%
Cn1c(=O)[nH]c(=O)c2c1nc(NC1CCCCC1)n2CC(=O)NC1CCCCC1 | -4%

# The results go on:
molecule | HPGD block
COc1ccc2nc(NNC(=O)C3COc4ccccc4O3)sc2c1 (stereo not given) | -14%
Cn1cc(/C=C(\C#N)C(=O)Nc2ncc(Cc3ccc(Cl)cc3)s2)c2ccccc21 | -10%
Cc1occc(=O)c1O | -14%&-5%&-5%
Cc1ccc(Cc2cnc(N)s2)o1 | -15%
C/C(Cl)=C\CSc1nnc2n(N)c(=O)c3ccccc3n12 | -18%
CCOC(=O)Cc1csc(NC(=O)CSc2nnc(C3CC3)n2C)n1 | -2%
Cc1ccnc(NC(=O)c2cccc(NC(=O)COc3ccccc3)c2)c1 | 3%
CCOC(=O)c1c(NC(=S)Nc2ccc(Cl)cc2)sc2c1CCN(C)C2 | -27%
COCCCn1c(SCc2ccc(OC)cc2)nc2cc(OC)c(OC)cc2c1=N | -17%
COc1ccc2c(c1)O/C(=C\c1sccc1C)C2=O | -26%
COCCCNCCCCOc1ccc(Br)cc1C | 4%
CCCCNC1C(CC)C(CCC)C(C#N)(C#N)C1(C#N)C#N (stereo not given) | -23%

# HPGD block, what is marked active above.
molecule | HPGD block
O=C(OCc1nnc(-c2ccccc2)o1)c1ccco1 | 8.9µM*
COc1ccc2ccccc2c1C1CC(=O)N2CN(C3CCCCC3)CSC2=C1C#N (stereo not given) | 18µM*
CC(C)(C)NC(=O)CSCc1c(Cl)cccc1Cl | 25µM*

# Additional compounds.
molecule | HPGD block
CC(OC(=O)Cn1c(C(F)(F)F)nc2ccccc21)C(=O)N1CCCc2ccccc21 (stereo not given) | -6%
CC(=O)N1CCC2(CCCN(c3ccc(-c4ccccc4)cc3)C2)CC1 | ?
COc1ccc(C(C)=O)cc1CSCCC(=O)O | 28µM*
O=C(CCOc1ccccc1)OCC(=O)c1cc2ccccc2o1 | 32µM*
CCOC(=O)C1=C(CSCC(=O)OC)NC(=O)NC1c1cc(C)ccc1C (stereo not given) | -5%
CCOC(=O)C1CCN(S(=O)(=O)c2cccc3nonc23)CC1 | 0%
O=C(CCCN1C(=O)c2ccccc2C1=O)NCCCN1CCOCC1 | -7%
C=CCN(CC=C)S(=O)(=O)c1ccc2nc(NC(=O)C(C)C)sc2c1 | -4%
Cc1ccc(-c2noc(CCCc3ccccc3)n2)cc1 | -13%
Cc1ccc(Nc2nnc(SCc3cc(=O)n4ccsc4n3)s2)c(C)c1 | -16%
COc1ccc(/C(N)=N/OC(=O)c2ccc3c(c2)OCO3)cc1OC | -11%
Cc1cc(OCCOCCN(C)C)ccc1Cl | -3%
Cc1cccc(N2CCN(C(=O)CN(C)S(=O)(=O)c3ccc4c(c3)CCC(=O)N4)CC2)c1C | -9%
O=[N+]([O-])c1nn(-c2ccc3c(c2)OCCO3)n(O)c1=NCc1ccc(F)cc1 | 20µM*
Brc1ccccc1-c1nnc2sc(-c3ccc4c(c3)OCCO4)nn12 | ?
CCCCC(=O)Nc1ccc(NC(=S)NC(=O)CC(C)C)cc1OC | ?
CNC(=O)/C(=C\c1cccc(Oc2ccccc2)c1)NC(=O)c1ccccc1 | 2%
COc1ccc(NC(=O)N2CCCCC2c2cccnc2)cc1 (stereo not given) | -1%
CCC1(C)Cc2c(sc3c2c(=O)n(C)c2nnc(SCc4ccccc4)n32)CO1 (stereo not given) | -7%
Cn1cnnc1SC(C(=O)Nc1ccc(F)cc1)c1ccccc1 (stereo not given) | -1%
N#Cc1ccccc1NC(=O)c1ccc(-c2ccccc2Cl)o1 | ?
COc1cc(C(=O)OCCNC(=O)c2ccncc2)cc(OC)c1OC | -9%
CN1C(=S)SC(N(O)C(=O)Nc2cccc3ccccc23)C1(C)C (stereo not given) | -16%
O=C(CSc1nc2c(sc3ccccc32)c(=O)n1CCO)NCC1CCCO1 (stereo not given) | -13%
Cc1ccc(CS(=O)(=O)CCC(=O)NCc2cccs2)cc1 | -4%
Cn1c(=O)cc(SCC(=O)Nc2cccnc2)c2ccccc21 | -25%
COC(=O)c1ccc(C2C3=C(Nc4nnnn42)c2ccccc2OC3)cc1 (stereo not given) | -24%
Cc1ccc(C(=O)Nc2c(-c3cccs3)c(=O)c3ccccc3n2C)cc1 | -14%
CC1(C)OC(C)(C)/C(=C/Nc2ccc(O)cc2)C1=O | -20%
CCCn1c(SCC(=O)NC2CCCCC2)nnc1-c1ccncc1 | -11%
CCC1OC(=O)C(C)[C@@H](O[C@H]2C[C@@](C)(OC)C(O)C(C)O2)C(C)[C@@H](O[C@@H]2OC(C)CC(N(C)C)C2O)[C@@](C)(O)CC(C)C2NC(COCCOC)O[C@H](C2C)[C@@]1(C)O (stereo not given in full) | -1%
Cc1nn(C)c(Oc2ccc(Cl)cc2)c1C(=O)O | -16%
COc1ccc(NC(=O)CSc2ccc(F)cc2)cc1S(=O)(=O)N1CCCCC1 | -2%
O=C(CSc1nnnn1Cc1ccccc1)c1ccccc1 | -5%
CC(C)(C)c1ccc(OCC(=O)N/N=C/c2cc(Br)ccc2OC(=O)c2ccco2)cc1 | -11%
CCOC(=O)C(C)Sc1nc(-c2ccc(OC)cc2)nc2c1c(=O)n(C)c(=O)n2C (stereo not given) | ?
CC(C)NC(=O)NC(=O)CSc1nncn1C | -7%
Clc1ccc2c(c1)CCc1cccnc1C2=C1CCNCC1 | -3%&-4%
CCOc1cc(/C=N/NC(=O)C(C)Sc2ccccn2)ccc1O (stereo not given) | -7%
COc1ccc(C(=O)CSc2nnc(COc3ccccc3)n2Cc2ccco2)cc1 | -23%
CC(C)Cn1c(-c2csc3ccccc23)n[nH]c1=S | ?
O=C(c1ccc(Cl)cc1[N+](=O)[O-])N(Cc1ccccc1)Cc1ccccc1 | -25%
O=C1OCCN1C(=O)[C@H]1[C@H](c2ccc(F)cc2)C(c2ccc(F)cc2)=NN1c1ccc(Br)cc1 | ?
CC(C)[C@H]1COC(c2cc(Cl)cc(Cl)c2)=N1 | -6%
N#CC1=C(N)Nc2nc3ccccc3n2C1c1ccc(F)cc1 (stereo not given) | -10%
CC1=C2C(=CO[C@H](C)[C@H]2C)C(=O)C(C(=O)O)=C1O | -6%
CCN1C(=O)CC(C(=O)Nc2ccc(F)cc2)SC1=Nc1ccc2c(c1)OCO2 (stereo not given) | -10%
CCOC(=O)C(C(=O)OCC)C(C)C#CCN1CCCCC1 (stereo not given) | -11%

# Next section:
compound	HPGD block
Cc1nc(NCc2ccccc2)c2nc(-c3ccccc3)n(CC(C)(C)CN(C)C)c2n1	?
CN(C)/C=C1/C=C(c2ccccc2)OC1=O	-11%
CCOC(=O)/C(=C\C=C1/Sc2cc(OCC)c(OCC)cc2N1CC)C(C)=O	-11%
COc1cc(/C=N/NC(N)=O)c(Br)cc1OCC(=O)Nc1ccccc1C	-16%
O=c1[nH]c2cc3c(cc2cc1C(c1nnnn1C1CCCCC1)N1CCSCC1)OCCO3 (stereo not given)	?
CCC(C)NC(=O)C1(C)CCC(=O)N1Cc1ccccc1OC (stereo not given)	-11%
O=C1Nc2ccc(Cl)cc2C12Nc1ccccc1-c1nnc(SCc3ccccc3F)nc1O2 (stereo not given)	-12%
COc1ccc(S(=O)(=O)NCc2ccc3c(c2)cc(C)n3C)cc1	-9%
COCCNCc1ccccc1	-3%
CC(=O)N(CCC(c1ccccc1)c1ccco1)Cc1cccs1 (stereo not given)	28µM*
CCCn1c(=O)c2[nH]c(-c3ccc(S(=O)(=O)O)cc3)nc2n(CCC)c1=O	?
CCOC(=O)Cn1c(=NC(=O)c2sc3ccccc3c2Cl)sc2cc(S(N)(=O)=O)ccc21	?
COc1ccc(CNc2cc(C)ccc2C)c(OC)c1OC	-22%
CCNc1nc(SCCOc2ccccc2)nc(N(C)C)n1	-6%
CCOC(=O)C(C)n1cnc2sc3c(c2c1=O)CCC3 (stereo not given)	-13%
Cc1ccc(C(=O)N/N=C/c2ccc(S(=O)(=O)O)o2)c(Cl)c1	-28%
O=C(Nc1ccc2c(c1)OCO2)c1noc2c1CCCCC2	-16%
O=C(Nc1ccccc1)N1CCCC(c2nc(-c3cccs3)no2)C1 (stereo not given)	3%
O=C(NCc1ccc2c(c1)OCO2)C(C(=O)c1ccccc1)n1cc(Cl)ccc1=O (stereo not given)	-4%
Cc1ccc(NC(=O)c2ccc(OC(=O)c3cc4ccccc4o3)cc2)cc1	-1%
CC(C)CC(=O)NCCc1ccncc1	-14%
Cc1ccc(Nc2nnc(SCC(=O)NC3CCCc4ccccc43)s2)cc1 (stereo not given)	-9%
COc1ccc(/C=N/NC(=O)c2cccc(OC(F)(F)C(F)F)c2)c(OC)c1OC	-2%
O=C(c1cccc(N2CCCC2=O)c1)N1CCOCC1	0%
O=C(O)CCCC(=O)N(Cc1ccccc1)Cc1ccccc1	-9%
C/C(=N\NC(=O)c1cccc(Br)c1)c1cccc(NC(=O)c2ccc(C)o2)c1	-22%
CC(C)Oc1ccc(C(=O)N2CCCc3ccccc32)cc1	22µM*
O=c1[nH]c(=S)[nH]nc1Cc1ccccc1	28µM*
NC(=O)c1ccccc1NC(=O)c1ccccc1F	-12%
CN(C)C1C(=O)c2ccccc2C1=O	-8%
Cc1cccc2nc(CSc3nc4ccccc4o3)cn12	-4%
CCN(C(=O)COC(=O)CNC(=O)C12CC3CC(CC(C3)C1)C2)C1CCS(=O)(=O)C1 (stereo not given)	-11%
CCOCCc1nnc(NC(=O)Cc2ccc(Br)cc2)s1	1%
Cc1cccc(CSC2=CS(=O)(=O)c3ccccc3N2)c1	-5%
O=C(c1ccco1)N1CCN(c2nc(C(F)(F)F)nc3c2nnn3Cc2ccccc2)CC1	?
CC1(C)CC(=O)N(CC(=O)O)c2ccccc2S1	-6%
CCN(CC)S(=O)(=O)c1cccc(C(=O)Nc2sc3c(c2C(N)=O)CCCC3)c1	-3%
O=C(Nc1ccccc1)C1=C(O)CC(c2ccc(Cl)cc2)N2CCN=C12 (stereo not given)	-3%
Cc1c(C(=O)N2CCc3ccccc3C2)oc2ccc(S(=O)(=O)N3CCCCCC3)cc12	-18%
C=CCOC(=O)C1=C(C)NC2(O)c3ccccc3C(=O)C12O (stereo not given)	-4%
COc1ccc(OC)c(C(=O)Cn2nnc3ccccc3c2=O)c1	-8%
